Assay outcomes as filed in PubChem BioAssay.
HSD17B inh: inhibitors of human HSD17B10 dehydrogenase; Q99714; recombinant HSD17B10, NADH fluorescence kinetic; many of its hits are not listed in these tables; Potency, µM (doses to about 57.1 µM), for the others: at the top dose activity change, negative = inhibition, usual class: inhibitors; 75,000 tested, 7.6% active; active means well fitted inhibition curve with a large enough effect; inconclusive means small, poorly fitted or top-dose-only effect; inactive means no such curve, though single readings can be large or run the other way;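 further: the protocol describes HADH2 (HSD17B10) and not the HSD17B4 of the title; nearly all actives have a fitted effect of over 70% in size; most hits overshoot -100% by far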
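Enzyme plus compound, 15 min room temperature; substrate mix added (NAD+ 1 mM, beta-hydroxybutyryl-CoA 90 uM final); plates read kinetically for NADH fluorescence. HADH2 was His-tagged, E. coli-derived, 20 nM.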
An asterisk follows results filed as active; i = inactive; u = inconclusive; [ ] = another dose, or the depositor's remark. On the % scale 0 is the no-effect control and ±100 the full control effect; potency means the concentration at half of the fitted maximal effect.

SMILES | HSD17B inh
CCOC(=O)/C(C#N)=C1/SC(CC)C(=O)N1c1ccc(C)cc1 (stereo unspecified) | -7%
OC(c1cccnc1)c1cccs1 (stereo unspecified) | 1%
CC(=O)N1CCN(c2ccc(NCc3ccc4c(c3)OCO4)cc2)CC1 | 1%
O=C(CSc1nnc(-c2ccc(S(=O)(=O)N3CCCC3)cc2)n1CC1CCCO1)NC1CC1 (stereo unspecified) | -5%
COC(=O)CC1=COC(O)C2C(CO)=CC[C@@H]12 (stereo partly specified) | 1%[11.4 µM]
CCn1cc(C(=O)N2CCCC2)c(=O)c2cc(S(=O)(=O)N(C)C)ccc21 | 0%
CC(=O)OC1CC(C)(C)N(OC(=O)c2ccc(N)cc2)C(C)(C)C1 | -23%
CCOC(=O)c1[nH]c(C)c(CCC(=O)OC)c1C | 5%
CCn1c(=O)c(C(=O)CN2CCOCC2)c(N)n(Cc2ccccc2)c1=O | -4%
COc1cccc(-c2cnc(NCc3cc(Cl)ccc3O)n2C)c1 | 20µM*
COc1ccccc1NC(=O)N(Cc1ccco1)Cc1cc2cc(C)cc(C)c2[nH]c1=O | u
Cc1nc2ccc(S(=O)(=O)NCC(=O)N(C)Cc3ccco3)cc2s1 | -1%
CCC(=O)Nc1ccc(S(=O)(=O)Nc2cccnc2)cc1 | 2%
COC(=O)Cc1c(C)c2c(O)cc(C)cc2oc1=O | 32µM*
COc1ccccc1S(=O)(=O)Cc1ccc(C(=O)N2CCN(c3ccccc3)CC2)o1 | -1%
CCOC(=O)c1cc(-c2ccncc2)nc2c1c(C)nn2C | 25µM*
CCC1SC2=NC(C)=C(C(=O)OC)C(c3cccs3)N2C1=O (stereo unspecified) | 2%
Cc1ccccc1S(=O)(=O)Cc1ccc(C(=O)NCCN2CCN(Cc3ccccc3)CC2)o1 | 5%
COc1ccc(C2NCCO2)cc1OC (stereo unspecified) | 5%
CC(C)(C)NC(=O)C(c1ccc(F)cc1)N(Cc1ccco1)C(=O)c1csnn1 (stereo unspecified) | -13%
CC12CC(NC(=O)N1c1cccc(C(=O)Nc3ncn[nH]3)c1)c1ccccc1O2 (stereo unspecified) | -9%
COc1ccc2[nH]cc(CCNc3ncncc3-c3c(C)noc3C)c2c1 | 6%
Cn1nnnc1SCc1cc(=O)[nH]c2ccccc12 | 0%
CC(C)(C#N)Nn1cnnc1 | 3%
COCCNC(=O)CSc1nc2c(n1-c1ccccc1)CCCC2 | 6%
CCOC(=O)CC(N)c1ccc(OC)cc1 (stereo unspecified) | -2%
COCCNC(=O)CN(c1ccccc1OC)S(C)(=O)=O | -1%
Cc1nnc2sc(-c3ccc(NC(=O)c4cccnc4)cc3)nn12 | -7%
O=C1N(O)C2(C=CCCC2)/C(=N\O)C12CCCCC2 (stereo unspecified) | 4%
O=P(CCNCc1ccco1)(c1ccccc1)c1ccccc1 | -1%
CC(C)C(=O)Nc1nnc(CCc2nnc(NC(=O)C(C)C)s2)s1 | 8%
CCOc1ccc(Nc2ncnc(N)n2)cc1 | 3%
CCCN(CCC)C(=O)Cn1c(=O)n(CCCCC(=O)NC2CCCC2)c(=O)c2ccccc21 | 4%
COc1cccc(CN(C(=O)c2cc3ccccc3oc2=O)C2CC2)c1 | -3%
COc1cccc(NC(=O)CCS(=O)(=O)c2cccs2)c1 | 8%
COc1ccc(C2=C(C)CC(C)(C)NC2=O)cc1OC | -13%
Cc1nnc(SCC(=O)c2cc(C)n(-c3c(C)n(C)n(-c4ccccc4)c3=O)c2C)s1 | -10%
N#CC1=C(SCC(=O)c2cc3ccccc3oc2=O)NC(=O)C(C#N)C12CCCC2 (stereo unspecified) | i
C=CCOC(=O)CN1C(=O)c2ccccc2C1=O | 8%
COc1cccc2c1C(=O)CC(c1ccccc1)O2 (stereo unspecified) | 32µM*
O=C(Nc1ccc(F)cc1)Nc1ccc(Cl)cn1 | -10%
CCn1cc(C(=O)NCCOC)c(=O)c2ccc(C)nc21 | 5%
COc1cccc(C2CC(=O)N3CN(c4cccc(Cl)c4C)CSC3=C2C#N)c1OC (stereo unspecified) | u
Cc1oc2c(CN3CCOCC3)c(O)ccc2c(=O)c1-c1ccccc1 | 32µM*
Cc1cc(C)cc(NC(=O)C2CCCN(c3nc(C)cc(C)n3)C2)c1 (stereo unspecified) | 0%
CCn1c(C(=O)N2CCCC(C(=O)NCCCc3ccccc3)C2)cc2sccc21 (stereo unspecified) | 3%
COc1ccc(NC(=O)c2coc3ccccc23)cc1OC | -1%
Cc1cccc(OCc2nc(C#N)c(NCc3ccc4c(c3)OCO4)o2)c1 | -3%
CCOc1ccc(Nc2nc3c(c(=O)[nH]2)CCC3)cc1 | 1%
O=c1cc(-c2ccccc2)[nH]n1-c1nc2ccccc2[nH]1 | -11%
CCOC(=O)N1CCN(c2nc(C)c3c(n2)CCCC3=O)CC1 | 6%
Clc1cccc(-c2ccc(/C=N/n3cnnc3)o2)c1 | -18%
C=CCn1c(SCC(=O)NC(=O)NC2CCCC2)nnc1C1CCCCC1 | 9%
CC1(C)C(N(O)C(=O)Nc2ccccc2)N(c2cccc(Cl)c2)C(=O)N1O (stereo unspecified) | 1%
COCCn1c(CN2CCC(Cc3ccccc3)CC2)nc2c1c(=O)n(C)c(=O)n2C | -1%
CC(C)Cn1c(=O)c2c(nc3n2CCCN3CCc2ccccc2)n(C)c1=O | -24%
Brc1cccc(-c2nnc3sc(CN4CCC5(CC4)OCCO5)cn23)c1 | 0%
O=c1c2ccccc2nc2c3ccccc3c(N3CCOCC3)nn12 | -9%
CCc1nnc(NC(=O)C2Cc3ccccc3CN2S(=O)(=O)c2cccs2)s1 (stereo unspecified) | u
COc1cccc(C2NC(=O)NC(O)(C(F)(F)F)C2C(=O)c2cccnc2)c1OC (stereo unspecified) | 3%
(next part)
SMILES | HSD17B inh
COC(=O)CN(c1ccccc1C)S(C)(=O)=O | 9%
CC(C)n1nc(C(=O)NCCc2ccc(S(N)(=O)=O)cc2)c2ccccc2c1=O | -4%
O=c1cc(-c2ccco2)oc2ccc(Cl)cc12 | 3.2µM*
Cn1c(=O)cc(OCCCC(=O)NCc2ccc3c(c2)OCO3)c2ccccc21 | 0%
COc1cccc(-c2cc(C(F)(F)F)nc(-n3cncn3)n2)c1 | -28%
COc1cc(OC)c(-c2nn3c(-c4ccncc4)nnc3s2)cc1OC | 10%
NC(CCC(=O)NC(CCSC(CC(=O)O)C(=O)O)C(=O)NCC(=O)O)C(=O)O (stereo unspecified) | 0%
Oc1ccc(-c2csc(NCc3ccco3)n2)cc1 | -6%
Cc1[nH]c2ccccc2c1C(=O)CN1CCC(C(N)=O)(N2CCCCC2)CC1 | 4%
CCN1CCN(CCCOc2ccc(-c3ccccc3)cc2)CC1 | 2%
Cc1ccc(C(=O)CC2(O)C(=O)N(CCc3ccccc3)c3ccc(Br)cc32)o1 (stereo unspecified) | -1%
O=C(Nc1ccccc1)N1CCCC2(CCN(C(=O)c3cc(C(F)(F)F)cc(C(F)(F)F)c3)CC2)C1 | 7%
Cc1ccc2cc3c(N)c(C(=O)N4CCOCC4)sc3nc2c1 | -5%
COCCn1c(=S)[nH]c2cc(C(=O)N3CCN(Cc4ccc5c(c4)OCO5)CC3)ccc2c1=O | 0%
CC(=O)c1cc(C)ccc1OC(=O)c1cccnc1 | 3%
C=CCn1c(=O)[nH]c2cc(C(=O)N3CCN(c4ccc(C(C)=O)cc4)CC3)ccc2c1=O | u
Cc1ccccc1-c1nc(N2CCOCC2)c2ccccc2n1 | -7%
CNC(=O)C1(CC(C)C)C=CCN1C(=O)c1ccccc1 (stereo unspecified) | 20%
O=C(CSc1oc(-c2ccco2)nc1S(=O)(=O)c1ccc(F)cc1)NCC1CCCO1 (stereo unspecified) | u
O=C(CCN1CCN(c2ccccc2F)CC1)Nc1ccc2c(c1)OCO2 | 6%
COc1ccc(-c2cnc(SCC(=O)Nc3ccc4c(c3)OCO4)n2Cc2ccco2)cc1 | -7%
CC(c1ccccc1)N1C(=O)CC(Sc2ncccc2C(=O)O)C1=O (stereo unspecified) | -14%
c1cncc(-c2nc(NCc3cccs3)c3ccccc3n2)c1 | -7%
Cn1c(=O)oc2cc(S(=O)(=O)N3CCCC(C(=O)NCCN4CCOCC4)C3)ccc21 (stereo unspecified) | 8%
O=C(N/N=C1/C[C@@H](O)[C@@H](O)[C@@H]2[C@@H]3C(=O)N(C[C@@H]4CCCO4)C(=O)[C@H]3CC[C@H]12)OCc1ccccc1 | 2%[11.4 µM]
O/N=C1/CCSc2ccccc21 | -5%
COC(=O)N1CCC2(CCN(Cc3ccccc3)CC2)CC1 | -3%
NC(N)=Nc1nc2ccc([N+](=O)[O-])cc2[nH]1 | 4%[11.4 µM]
CN(C)C(=O)c1ccc(-c2cncnc2NCc2ccccc2)cc1 | u
O=C(CSc1nnc(-c2ccco2)o1)NC1CCCCCC1 | 8%

Quoted at random: 7 compounds from above
SMILES | HSD17B inh
O=C(CCN1CCN(c2ccccc2F)CC1)Nc1ccc2c(c1)OCO2 | 6%
NC(N)=Nc1nc2ccc([N+](=O)[O-])cc2[nH]1 | 4%[11.4 µM]
O=C(N/N=C1/C[C@@H](O)[C@@H](O)[C@@H]2[C@@H]3C(=O)N(C[C@@H]4CCCO4)C(=O)[C@H]3CC[C@H]12)OCc1ccccc1 | 2%[11.4 µM]
O=C(CSc1oc(-c2ccco2)nc1S(=O)(=O)c1ccc(F)cc1)NCC1CCCO1 (stereo unspecified) | u
CNC(=O)C1(CC(C)C)C=CCN1C(=O)c1ccccc1 (stereo unspecified) | 20%
Cn1c(=O)oc2cc(S(=O)(=O)N3CCCC(C(=O)NCCN4CCOCC4)C3)ccc21 (stereo unspecified) | 8%
C=CCn1c(=O)[nH]c2cc(C(=O)N3CCN(c4ccc(C(C)=O)cc4)CC3)ccc2c1=O | u

More structures:
SMILES | HSD17B inh
O=C(O)CN1C(=O)CNC1=O | 5%
COC(=O)[C@@]1(Cc2ccc(OC)cc2)[C@H]2c3cc(C(=O)N(C)C)n(C[C@H](O)CO)c3C[C@H]2CN1C(=O)c1ccccc1 | -4%
COCC(=O)N1CCC2(CCCN(Cc3ccc(C#N)cc3)C2)CC1 | -3%
COc1ccc(CN2CCN(c3ncccn3)CC2)c(OC)c1 | 8%
CCOC(=O)C1C(=O)CC(C)(O)C(C(=O)OCC)C1c1ccc(Br)cc1 (stereo unspecified) | 7%
Cn1c([N+](=O)[O-])cnc1CN1CCN(CCO)CC1 | 7%[11.4 µM]
COc1ccc(-c2nc(SC)n(S(=O)(=O)c3ccccc3)n2)cc1 | -4%
O=C1CC(c2cccs2)c2cc3c(cc2N1)OCCO3 (stereo unspecified) | -20%
CCn1cc(C(=O)Nc2nncs2)c(=O)c2cc(F)c(N3CCN(C(=O)c4ccco4)CC3)cc21 | u
CN(C)c1oc(COc2ccc(F)cc2)nc1C#N | -8%
CCOCCCNC(=O)c1ccc2c(c1)N(Cc1ccccc1)C(=O)CS2=O (stereo unspecified) | -28%
CCCCn1c(=O)[nH]c(=O)c2c1nc(CN1C(=O)c3ccccc3S1(=O)=O)n2CCC | -2%
CC(C)CCn1c(SCC(=O)c2ccccc2)nc2c1c(=O)[nH]c(=O)n2C | 8%
COc1ccc(N2C(=O)CCC(C(=O)N3CCCCC3)C2c2ccc(F)cc2)cc1 (stereo unspecified) | 9%
C=CCn1c(=N)n(CC(=O)OC)c2ccccc21 | 4%

In a second layout: results already given.
| SMILES | HSD17B inh |
| --- | --- |
| COc1cccc(-c2cnc(NCc3cc(Cl)ccc3O)n2C)c1 | 20µM* |
| COc1ccccc1NC(=O)N(Cc1ccco1)Cc1cc2cc(C)cc(C)c2[nH]c1=O | u |
| Cc1nc2ccc(S(=O)(=O)NCC(=O)N(C)Cc3ccco3)cc2s1 | -1% |
| CCC(=O)Nc1ccc(S(=O)(=O)Nc2cccnc2)cc1 | 2% |
| COC(=O)Cc1c(C)c2c(O)cc(C)cc2oc1=O | 32µM* |

Other compounds:
SMILES | HSD17B inh
COc1ccccc1CNC(=O)Cn1nnc(-c2ccncc2)n1 | -5%
C[C@@H]1OC(OC2C(OC3CC[C@@]4(C)C5CC=C6C7CC(C)(C)CC[C@@]7(C(=O)O)CCC6(C)C5(C)CCC4[C@]3(C)CO)OCC(O)C2O)C(O)C(O)C1O (stereo partly specified) | -7%
CCN1C(=O)c2ccc(C(=O)Nc3nccs3)cc2C1=O | 5%
CCC(O)c1cc2c(cc1NC(=O)c1ccc(C)cc1)OCCO2 (stereo unspecified) | u
O=C(CN(C(=O)CNC(=O)c1ccco1)c1ccc2c(c1)OCO2)NC1CCCCC1 | -10%
COC(=O)N1CCC2(CC1)CN(c1cccc(-c3ccccc3)c1)C2 | 32µM*
O=C(Cc1cccs1)Nc1ccc(S(=O)(=O)Nc2ncccn2)cc1 | 25µM*
O=C(Nc1nccs1)C(NS(=O)(=O)c1ccc(Br)s1)c1ccccc1 (stereo unspecified) | u
C=CCn1c(Cc2cccs2)nnc1SCC(=O)Nc1ccc(OC)cc1 | 8%
Cc1ccc(N2CC(C(=O)NCCCn3ccnc3)CC2=O)cc1 (stereo unspecified) | -2%
COc1ccc(O[C@H]2C=C[C@@H](c3ccccc3)O[C@H]2CO/N=C(/C)CCC(=O)OC[C@@H]2O[C@H](c3ccccc3)C=C[C@@H]2Oc2ccc(OC)cc2)cc1 | 1%[11.4 µM]
NC(=O)CSc1nc2scc(-c3ccco3)c2c(=O)n1-c1ccccc1 | u
Cn1nnnc1SCC(=O)NCCCc1ccccc1 | 2%
NS(=O)(=O)c1ccc(CCNc2nc(CN3CCOCC3)nc3sc4c(c23)CCC4)cc1 | u

An excerpt. The share of hits here may be higher or lower than overall.
